High-throughput results: PubChem, several laboratories
KCNK3 block = human KCNK3 channel inhibition, primary screen | 0.84% of 340,000 active | B-score at 10 µM | AID 602410 | O14649 | CHO-KCNK3 thallium flux, FluxOR fluorescence; hits give low values;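 active = B-score under library mean minus 4 SD, starting fluorescence ratio at most library mean plus 5 SD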;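 note: more negative B-score means stronger inhibition of thallium flux through KCNK3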
KCNK9 block = blocks the human KCNK9 two-pore domain potassium channel; Q9NPC2; B-score at 10 µM; 1.2% of 310,000 active; HEK293 KCNK9, FluxOR thallium flux fluorescence; hits give low values;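 active = ratio B-score over 3 SD below the library mean, with starting fluorescence within 5 SD of its mean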;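 note: negative B-score means less thallium flux so channel inhibition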
KCNQ1 inh = blocks the human KCNQ1 potassium channel; P51787; B-score at 10 µM; 1.3% of 310,000 active; CHO-K1 KCNQ1, FluxOR thallium flux fluorescence; hits give high values;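 active = compounds whose thallium flux B-score, printed positive for inhibition, exceeds three library SD while starting fluorescence stays within three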;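 note: channel opened by potassium depolarization with thallium stimulus after 20 min compound exposure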
GSK3B inh = human GSK3beta kinase inhibition | 0.038% of 300,000 active | GST-GSK3beta kinase, ADP-Glo luminescence, 60 min; hits give low values | activity score (negative = inhibition), % at 10 µM;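 active = more than half of replicate wells score below -50%, meaning over 50% inhibition versus plate controls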;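 note: 0% = median DMSO wells and -100% = median GW8510 positive control wells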
Target sequence (P49841 whole entry, looked up): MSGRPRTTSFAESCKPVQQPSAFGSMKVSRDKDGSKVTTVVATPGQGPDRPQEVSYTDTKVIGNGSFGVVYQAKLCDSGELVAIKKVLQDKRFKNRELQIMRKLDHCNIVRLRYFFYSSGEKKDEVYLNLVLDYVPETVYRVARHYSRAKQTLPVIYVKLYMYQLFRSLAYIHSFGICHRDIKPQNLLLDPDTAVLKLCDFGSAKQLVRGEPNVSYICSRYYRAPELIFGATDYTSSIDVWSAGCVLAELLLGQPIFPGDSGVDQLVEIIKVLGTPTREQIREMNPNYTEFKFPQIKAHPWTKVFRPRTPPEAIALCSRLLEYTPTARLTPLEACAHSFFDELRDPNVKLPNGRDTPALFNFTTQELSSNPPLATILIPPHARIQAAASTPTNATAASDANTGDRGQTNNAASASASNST
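Assay system: GST-fused GSK3beta enzyme, cell-free / Medium: Tris pH 7.5 buffer with MgCl2, DTT, BSA, heparin / Also added: peptide substrate plus 25 µM ATP (final) / Compound: 10 µM single point / Timing: kinase reaction with compound 60 min at room temperature / Detection: ADP-Glo luminescence / Benchmarks: DMSO neutral wells and GW8510 at 20 µM as positive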
HDAC3 inh = inhibitors of human histone deacetylase 3 | inhibition, % at 8.3 µM | 0.15% of 320,000 active | AID 2718 | recombinant HDAC3, fluorogenic peptide/trypsin coupled, fluorescence | O15379; in the data active = inhibition above about 26%, passing the limit was not always enough
Dyrk1A ADPGlo = Dyrk1A (rat) kinase inhibition; Q63470; ADP-Glo luminescence, NFATc1 peptide; inhibition, % at 12.5 µM; 0.43% of 310,000 active; in the data active = inhibition above about 50%;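 note: plate controls were vehicle with enzyme for no effect and no enzyme for full effect; many of its hits are not listed in these tables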
GSK3A inh = human GSK-3 alpha kinase inhibition. AID 2650. P49840. inhibition, % at 10 µM. 0.1% of 320,000 active. ADP-Glo luminescence, 60 min;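 in the data active = inhibition above about 50%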;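 note: GST-tagged GSK-3 alpha with peptide substrate and 25 µM ATP; 0% = DMSO neutral wells and 100% = GW8510 positive control wells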
RGS4 act = potentiators or activators of RGS4; HEK293 M3R/inducible RGS4, carbachol calcium flux Fluo4; hits give low values; B-score at 10 µM; 0.92% of 310,000 active;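 active = B-score of the integrated calcium signal more than 4 SD below the library mean, with starting fluorescence not abnormally high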;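 note: negative B-score means reduced calcium response which marks RGS4 activation or potentiation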
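test system = M3R-expressing HEK293 line, RGS4 induced by doxycycline | probe or stimulus = carbachol at ECmax as muscarinic agonist stimulus | timing = dye loading 30 min 37 °C, buffer rest 30 min RT | signal = calcium dye Fluo4 fluorescence | evaluation = B score from integrated fluorescence ratio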
* hit, by the source's call; i = inactive; x = no result given. The list is partial; the hit share may differ from the screen's.

1: C[C@H]1[C@H](C)CC[C@]2(C(=O)O)CC[C@]3(C)C(=CC[C@@H]4[C@@]5(C)C[C@@H](O)[C@H](O)C(C)(C)[C@@H]5CC[C@]43C)[C@H]12
2: CC(=O)Nc1ccc(Oc2ncccn2)cc1
3: CC(=O)c1c(COC(=O)c2ccc(Cl)cc2)nc2ccccc2[n+]1[O-]
4: CC(C)n1c(=S)[nH]c2scc(-c3cccs3)c2c1=O
5: Cc1c(C(=O)C(=O)NCc2cccs2)c2ccccc2n1C
6: Cc1occc1C(=O)OCC(=O)Nc1ccc(F)cc1
7: O=C(N/N=C/c1ccc(F)cc1)c1c(O)c2ccccc2[nH]c1=O
8: O=C(O)CN1C(=O)/C(=C/c2ccc(N3CCCCC3)o2)SC1=S
assay / compound	1	2	3	4	5	6	7	8
KCNQ1 inh	i	i	i	i	i	i	i	i
HDAC3 inh	0.2	-6.5	2.9	-2.8	-3.1	4.6	2.8	x
GSK3A inh	6.1	-3.0	-0.8	4.2	-0.1	x	-0.3	-0.1
KCNK9 block	i	i	i	i	i	i	i	i
KCNK3 block	i	i	i	i	i	i	i	i
GSK3B inh	3.3	1.3	0.6	4.1	-0.3	5.9	-0.7	-9.5
RGS4 act	-7.62*	i	i	i	i	i	i	i
Dyrk1A ADPGlo	2.3	-2.2	x	38.2	x	-4.9	-2.0	7.2

9: CC(C)C(=O)Nc1c(-c2ccccc2F)c(=O)c2ccccc2n1C
10: C/C(=N/NC(=O)c1cc2ccccc2cc1O)c1ccco1
11: Cc1nc2ccc(NC(=O)Cc3ccc4c(c3)OCCO4)cc2s1
12: CCCc1nc2oc3c(NCCCN(C)C)ncnc3c2c2c1CCCC2
13: O=C(COC(=O)Cc1ccc(S(=O)(=O)N2CCOCC2)s1)NCc1ccccc1
14: O=C(Nc1nnc(C2=COCCO2)o1)c1ccc(Br)cc1
15: Cc1ccc(S(=O)(=O)Nc2cccc3cccnc23)c([N+](=O)[O-])c1
16: O=c1c2cc(Cl)ccc2nc(-c2ccc(Cl)c(Cl)c2)n1O
assay / compound	9	10	11	12	13	14	15	16
KCNQ1 inh	i	i	i	i	i	i	i	i
HDAC3 inh	-4.5	-5.7	1.2	-30.9	-6.1	1.7	x	x
GSK3A inh	1.0	1.5	-3.1	14.5	-1.0	-3.5	0.2	-1.2
KCNK9 block	i	i	i	i	i	i	i	i
KCNK3 block	i	i	i	i	i	i	i	i
GSK3B inh	0.2	-2.4	-4.3	-4.1	1.5	2.7	0.0	2.9
RGS4 act	i	i	i	i	i	i	i	-7.68*
Dyrk1A ADPGlo	0.3	-6.0	-4.9	x	0.5	1.8	-14.3	-0.5

Quoted at random: three entries already listed.
10: C/C(=N/NC(=O)c1cc2ccccc2cc1O)c1ccco1
15: Cc1ccc(S(=O)(=O)Nc2cccc3cccnc23)c([N+](=O)[O-])c1
13: O=C(COC(=O)Cc1ccc(S(=O)(=O)N2CCOCC2)s1)NCc1ccccc1
assay / compound	10	15	13
KCNQ1 inh	i	i	i
HDAC3 inh	-5.7	x	-6.1
GSK3A inh	1.5	0.2	-1.0
KCNK9 block	i	i	i
KCNK3 block	i	i	i
GSK3B inh	-2.4	0.0	1.5
RGS4 act	i	i	i
Dyrk1A ADPGlo	-6.0	-14.3	0.5

The listing picks up; the 4 compounds before the break are reprinted first.
13: O=C(COC(=O)Cc1ccc(S(=O)(=O)N2CCOCC2)s1)NCc1ccccc1
14: O=C(Nc1nnc(C2=COCCO2)o1)c1ccc(Br)cc1
15: Cc1ccc(S(=O)(=O)Nc2cccc3cccnc23)c([N+](=O)[O-])c1
16: O=c1c2cc(Cl)ccc2nc(-c2ccc(Cl)c(Cl)c2)n1O
17: CCCc1ccc(C(C)NC(=S)NCc2ccc(F)cc2)cc1 (stereo unspecified)
18: O=C(NC(=S)NCCC1=CCCCC1)c1ccc(Br)o1
19: CCN(CC)C(=O)Oc1ccc2c(c1)O/C(=C\c1ccco1)C2=O
20: COCCN(Cc1cc2cc3c(cc2nc1Cl)OCO3)C(=O)c1ccc(C)cc1
21: COc1ccc2c(c1)c1nnc(SC)nc1n2C
22: COc1cc(/C=C2\SC(=S)N(NS(=O)(=O)c3ccccc3)C2=O)ccc1O
23: O=C(CCNS(=O)(=O)c1ccccc1)N1CCN(C(c2ccccc2)c2ccccc2)CC1
24: Cc1ccc(-c2nn3c(C)nnc3s2)cc1NC(=O)CSc1ccc(Cl)cc1
25: O=C(NC(=S)Nc1nc2c(s1)CSc1ccccc1-2)c1ccccc1
assay / compound	13	14	15	16	17	18	19	20	21	22	23	24	25
KCNQ1 inh	i	i	i	i	i	i	i	i	i	i	i	i	i
HDAC3 inh	-6.1	1.7	x	x	-0.6	-5.4	0.2	4.5	-1.7	x	7.9	-1.3	-5.2
GSK3A inh	-1.0	-3.5	0.2	-1.2	-5.2	0.7	-1.8	x	0.9	-2.2	0.5	-0.4	-1.8
KCNK9 block	i	i	i	i	i	i	i	i	i	i	i	i	i
KCNK3 block	i	i	i	i	i	i	i	i	i	i	i	i	i
GSK3B inh	1.5	2.7	0.0	2.9	4.8	-4.6	-1.5	1.2	3.4	6.5	-0.3	1.6	0.3
RGS4 act	i	i	i	-7.68*	i	i	i	i	i	i	i	i	i
Dyrk1A ADPGlo	0.5	1.8	-14.3	-0.5	0.2	2.2	52.6*	-0.3	-0.1	12.8	11.6	3.6	-5.8
